Screening results as filed in PubChem.
CBX7 inh: blocks human CBX7 binding to H3K27me3 peptide; normalised signal (fraction of DMSO) (concentration not given with the values); hit rate 1.1% among 66,000; AlphaScreen His6-CBX7 / biotin-H3K27me3 peptide binding; hits give low values; O95931; in the data active = normalised signal below about 0.5;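 note: 100 nL library stock added to about 20 µL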
Target sequence (O95931 whole entry, looked up): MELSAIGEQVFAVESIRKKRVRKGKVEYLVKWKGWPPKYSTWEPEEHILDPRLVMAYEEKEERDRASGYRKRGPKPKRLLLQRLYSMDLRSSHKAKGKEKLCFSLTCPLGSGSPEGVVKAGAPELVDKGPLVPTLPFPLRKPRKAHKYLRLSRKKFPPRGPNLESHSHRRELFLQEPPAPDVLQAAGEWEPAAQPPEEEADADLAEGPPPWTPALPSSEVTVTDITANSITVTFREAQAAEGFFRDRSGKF
CBX7 inh z-score: second read-out of CBX7 inh, no call of its own (marks repeat the call); z-score; measured here: z-score of CBX7 signal; some inactives read as strong as hits; reference of the scale not given here;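 same signal on another scale; lower means less binding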
The depositor's hits bear a star; & = joins results of further samples.

SMILES | CBX7 inh | CBX7 inh z-score
COc1cccc(-c2nc(CSCC(=O)N3CCCC3)c(C)o2)c1 | 1.1 | 0.64
CCOC(=O)N1CCN(C(=O)Cn2cnc3c(nnn3Cc3ccc(C)cc3)c2=O)CC1 | 0.86 | -2.2
Cc1cc(C(F)(F)F)nc(NC(C)c2ccccc2)n1 (stereo not drawn) | 1.3 | 2.4
COc1ccc(C2C(=O)N(C3CCCCCC3)CC(=O)N2C2CC2)cc1 (stereo not drawn) | 1.1 | 0.3
c1ccc(-c2csc(N3CCC(c4ccccc4)C3)n2)cc1 (stereo not drawn) | 1.1&1.2 | 3.2&8.5
Cc1nccn1CCC(=O)NCCc1ccc(Cl)cc1 | 0.98 | -0.43
CCN1CCN(C(=O)c2ccc3c(c2)N(Cc2cccc(F)c2)C(=O)c2ccccc2S3)CC1 | 0.92 | -2.3
Cc1ccc(NC(=O)C(c2ccccc2)N2CCc3ccccc32)cc1 (stereo not drawn) | 0.55 | -9.7
CC1(C(=O)NC2CCCCCC2)CCC(=O)N1CCc1ccccc1 (stereo not drawn) | 0.98 | -0.64
O=C(NCc1ccc2c(c1)OCO2)C(=O)c1c(-c2ccccc2)[nH]c2ccccc12 | 0.77 | -2.3
O=C(COc1ccccc1)NC1CCS(=O)(=O)C1 (stereo not drawn) | 1.3 | 3.1
CCOC(=O)c1cc(-c2ccccc2)n(CCC(=O)NC(C)CC)c1C (stereo not drawn) | 0.84 | -1.8

Overlap with the part before: 3 compounds, followed by the next part.
SMILES | CBX7 inh | CBX7 inh z-score
O=C(NCc1ccc2c(c1)OCO2)C(=O)c1c(-c2ccccc2)[nH]c2ccccc12 | 0.77 | -2.3
O=C(COc1ccccc1)NC1CCS(=O)(=O)C1 (stereo not drawn) | 1.3 | 3.1
CCOC(=O)c1cc(-c2ccccc2)n(CCC(=O)NC(C)CC)c1C (stereo not drawn) | 0.84 | -1.8
CCc1ccc(NS(=O)(=O)c2ccc3[nH]cc(C(=O)NC)c(=O)c3c2)cc1 | 1.1 | 2
COc1ccc(CNC(=O)c2cc(C)no2)cc1 | 1.2 | 2.4
CCOC(=O)c1cc2cc(OCc3ccccc3)ccc2nc1C | 1.2&1.1 | 2.3&3.2
CCCc1noc(-c2cc(-c3ccc(Cl)cc3)nc3ccccc23)n1 | 1.6 | 0.57
CC(=O)N1CCc2cc(S(=O)(=O)NC(Cc3ccccc3)C(=O)Nc3cc(C)cc(C)c3)ccc21 (stereo not drawn) | 0.97 | -0.61
Cc1nc(Oc2cccc3ccccc23)c2c3c(sc2n1)CCCC3 | 0.98 | -0.39
COCCCN(C)C1CCN(C(=O)Nc2ccccc2C(F)(F)F)CC1 | 0.72 | -1.1
Brc1ccc2nc(Nc3ccccn3)nc(-c3ccccc3)c2c1 | 1.1 | 1.4
c1cncc(-c2nc3ccccn3c2Nc2ccc3c(c2)OCCO3)c1 | 0.9 | -1.7
Cc1nc(Nc2cccc(C(F)(F)F)c2)c2c3c(sc2n1)CCC3 | 1 | 0.4
CCOCCCNC(=O)C(NC(=O)c1cnccn1)c1ccc(OC)cc1 (stereo not drawn) | 1 | 0.051
COc1cccc(C2=NOC(C(=O)NCCc3ccccc3)C2)c1 (stereo not drawn) | 1.1 | 1.8

Given as labelled records: entries from further up.
> CCc1ccc(NS(=O)(=O)c2ccc3[nH]cc(C(=O)NC)c(=O)c3c2)cc1
- CBX7 inh: 1.1
- CBX7 inh z-score: 2
> COc1cccc(C2=NOC(C(=O)NCCc3ccccc3)C2)c1 (stereo not drawn)
- CBX7 inh: 1.1
- CBX7 inh z-score: 1.8
> c1cncc(-c2nc3ccccn3c2Nc2ccc3c(c2)OCCO3)c1
- CBX7 inh: 0.9
- CBX7 inh z-score: -1.7
> COCCCN(C)C1CCN(C(=O)Nc2ccccc2C(F)(F)F)CC1
- CBX7 inh: 0.72
- CBX7 inh z-score: -1.1

The listing continues:
SMILES | CBX7 inh | CBX7 inh z-score
Cc1ccc(CNC(=O)CCn2nc(-c3ccc(Cl)cc3)ccc2=O)cc1 | 1.2 | 3
Clc1ccc2nc(N3CCN(c4ccccc4Cl)CC3)nc(-c3ccccc3)c2c1 | 1.4 | 1.4
O=C(Cc1c(C(=O)O)[nH]c2ccccc12)Nc1ccc(F)cc1F | 1 | 0.9
O=C(CCc1nc(-c2ccccc2F)no1)NC1CCN(Cc2ccccc2)CC1 | 0.9 | -1.5
COc1ccc(NC(=O)c2c(NCc3ccccn3)sc3c2CCCC3)c(OC)c1 | 0.51 | -9.7
CCn1c(C(=O)N2CCC(N3CCCCC3)CC2)cc2sc(Cl)cc21 | 1 | 0.62
CCOC(=O)c1sc2ncn(CC)c(=O)c2c1C | 1.1 | 1.7
CN1CCN(C(=O)c2cc3nc4c(c(C(F)(F)F)n3n2)CCc2ccccc2-4)CC1 | 0.99 | -0.082
COc1ccc(-c2ccc(=O)n(CC(=O)Nc3ccccc3C(F)(F)F)n2)cc1 | 1 | 1.2
COc1ccccc1Nc1ncc(-c2cccs2)s1 | 0.83 | -0.29
COc1ccc(CCNC(=O)C2CCN(S(=O)(=O)c3ccc(F)cc3)CC2)cc1OC | 1 | 0.34
COc1ccc(C(O)(c2ccc(OC)cc2)c2ccccc2N2CCCCC2)cc1 | 0.99 | -0.23
CC(=O)N1c2ccccc2NC2=C(C(=O)CCC2)C1c1cccnc1 (stereo not drawn) | 0.87 | -1.5
CCOc1ccc(-n2c(Cc3cc(=O)[nH]c(=O)[nH]3)nnc2SCC(=O)Nc2nc(C)cs2)cc1 | 1 | 0.56
Cc1sc2ncn(CC(=O)NCC(=O)NCCN(C)C)c(=O)c2c1C | 1.2 | 1.9
Cc1ccc(N(CC(=O)NCCc2ccc(Cl)cc2)S(=O)(=O)c2c(C)noc2C)cc1 | 1 | 0.4
Cc1ccc(NC(=O)c2sc3ncn(Cc4cccc(F)c4)c(=O)c3c2C)cc1F | 1 | 0.24
CCOC(=O)c1c(NC(=O)c2ccccc2OC)sc2c1CCC(CC)C2 (stereo not drawn) | 1.3 | 12
CC(C)OCCCNC(=O)c1ccc2c(c1)NC(=O)CN2C | 0.94 | -0.91
CCCCNc1nnc(-c2c(Cl)c(C)nn2C)s1 | 1 | 0.27
Cc1cc(NC(=O)CSc2nnc(CNC(=O)c3ccccc3F)o2)no1 | 0.94 | -1.7
COCCNC(=O)CNC(=O)c1nn(-c2ccc(OC)cc2)c(=O)c2ccccc12 | 0.99 | -0.3
CCOC(=O)C1CCCN(C(=O)c2ccc(CNc3c(N4CCC(C)CC4)c(=O)c3=O)cc2)C1 (stereo not drawn) | 1.1 | 4.1
COC(CNC(=O)c1ccc2c(c1)N(Cc1ccccc1F)C(=O)c1ccccc1S2=O)OC (stereo not drawn) | 0.91 | -1.3
CC(C)Cn1c(C(C)NC(=O)c2ccccc2)nc2ccccc21 (stereo not drawn) | 1 | 0.019
COc1cc2c(cc1OC)C(C(=O)N1CCOCC1)C(c1ccccc1F)N(C)C2=O (stereo not drawn) | 0.82 | -2
CC1CN(c2nnnn2-c2ccccc2)CC(C)O1 (stereo not drawn) | 1.1 | 0.97
Cc1ccc(Nc2ncc(C(=O)NCc3cccnc3)c3ccccc23)cc1Cl | 1.1 | 2.6
CCC(=O)Nc1nc2nc(-c3ccccc3)cc(=O)n2[nH]1 | 1.2 | 1.7
Fc1ccccc1-c1nc(Nc2ccc(Cl)cc2)c2ccccc2n1 | 1.1 | 2.6
O=C1CN(C(=O)c2ccccc2C(F)(F)F)C(c2ccc(F)cc2)c2cc(Cl)ccc2N1 (stereo not drawn) | 1.2 | 1.7
O=C(Nc1ccc(F)cc1)N1CCC(n2c(=O)[nH]c3ccccc32)CC1 | 1 | 0.31
Cc1ccccc1C(=O)Nc1sc2c(c1C(=O)N1CCCCCC1)CCC2 | 0.95 | -0.58
Cc1cccc(NC(=O)CN(c2ccc(C(C)C)cc2)S(=O)(=O)c2c(C)nn(C)c2C)c1 | 1.2 | 1.6
Cc1cc(C)c2c3c(sc2n1)C(=O)NCC(=O)N3 | 0.89 | -1.3
CCc1ccc(CNC(=O)CCC(=O)Nc2ccc3nc(N4CCCCC4)cc(C)c3c2)cc1 | 1.1 | 2.5
CCCCNC(=O)c1cc(-c2cccnc2)nc2ccccc12 | 0.98 | -0.61
COc1ccc(S(=O)(=O)N2CCC(C(=O)Nc3ccc(C)cc3)CC2)cc1 | 1.1 | 2.3
Cc1cc(C)c(NC2c3ccccc3C(=O)N2c2ccc(Cl)cn2)c(C)c1 (stereo not drawn) | 0.89 | -2.9
Cc1cc(F)ccc1NC(=O)CN1C(=O)CC(C)(C)Sc2ccccc21 | 1 | 1.4
COC(=O)c1cc2ccsc2n1Cc1nc(-c2cccc(C)c2)oc1C | 0.83 | -4.8
COc1ccc(NC(=O)C2CCCN(S(=O)(=O)c3cccs3)C2)cc1 (stereo not drawn) | 0.96 | -0.67
O=c1cc(N2CCCCCC2)[nH]c(=O)n1-c1ccccc1Cl | 0.91 | -1.7
Cn1c(Sc2ccc(C(F)(F)F)cn2)nnc1-c1ccccc1 | 1.1 | 0.66
Cc1c(C(=O)N(C)Cc2ccccc2)oc2ccc(S(=O)(=O)N3CCCC3)cc12 | 1 | 0.25
OCc1cn(-c2ccccc2)nc1-c1cc2ccccc2o1 | 0.92 | -1.2
COCC(C)NC(=O)c1cc(-c2ccc(Br)cc2)on1 (stereo not drawn) | 1.1 | 0.15
O=C(Nc1ccc2c(c1)nc1n2CCN(Cc2ccccc2)C1)c1ccc(Cl)cc1 | 1 | 0.96
Cc1c(C(=O)N(Cc2cccc(Cl)c2)C2CCS(=O)(=O)C2)oc2ccccc12 (stereo not drawn) | 1.2 | 1.7
CCOc1ccc2c(c1)c(=O)c(S(=O)(=O)c1ccc(C)cc1)cn2Cc1cc(C)ccc1C | 0.91 | -3.4
O=C(CCn1c(=O)c2sccc2n(Cc2cccc(F)c2)c1=O)NCc1ccc2c(c1)OCO2 | 0.87 | -2.1
COc1ccc(C)cc1NC(=O)c1cc2c(s1)-c1ccccc1OC2 | 1.9 | 43
O=C(CCCN1C(=O)CSc2ncccc21)NC1CCCC1 | 0.97 | -0.08
COc1ccccc1CN1C(=O)c2ccccc2C1C(=O)NCc1cccnc1 (stereo not drawn) | 1 | -0.027
O=C(CSc1nnc(CNC(=O)c2ccccc2F)o1)Nc1ccccc1C(F)(F)F | 0.98 | -0.69
COc1cccc(NC(=O)C2CCN(S(=O)(=O)c3cnc[nH]3)CC2)c1 | 0.98 | -0.24
CCOc1ccc(-c2nc(C#N)c(NCc3ccccc3)o2)cc1 | 1.2 | 2.3
CCCCNC(=O)Cn1ncc2c1-c1ccccc1OC2 | 0.88 | -1.5
Cc1cc(C)cc(NS(=O)(=O)c2ccc3[nH]cc(C(=O)NCc4ccccc4Cl)c(=O)c3c2)c1 | 0.93 | -0.9
CCOc1ccc(-n2nc(C(=O)NCc3ccc(F)cc3)c3ccccc3c2=O)cc1 | 0.88 | -1.4
Further entries
SMILES | CBX7 inh | CBX7 inh z-score
c1ccc(CC2CCN(c3nc(-c4ccccc4)cs3)CC2)cc1 | 1.3&1.2 | 3.2&4.4
O=C1CN(C(=O)C2(S(=O)(=O)c3ccc(Cl)cc3)CC2)CC(=O)N1CCc1ccccc1 | 1 | 1.2
COc1ccc(CN(C(=O)c2cccc(OC)c2)C2CCS(=O)(=O)C2)cc1 (stereo not drawn) | 0.97 | -0.03
Cn1c(=O)c(=O)n(C)c2cc(S(=O)(=O)N3CCCC3C(=O)NC3CCCCCC3)ccc21 (stereo not drawn) | 1.1 | 0.8
Cc1nnc(NC(=O)c2ccc(S(=O)(=O)N3CC(C)CC(C)C3)cc2)o1 (stereo not drawn) | 0.39* | -0.81*
CCOC(=O)c1cnc2c(C)cc(Cl)cc2c1NCc1ccccc1 | 1.8 | 2.7
COc1ccccc1CNC(=O)CNS(=O)(=O)c1ccc2c(c1)CCN2C(C)=O | 0.92 | -1.5
COc1ccc(OCC(O)Cn2c(=N)n(CCN3CCOCC3)c3ccccc32)cc1 (stereo not drawn) | 1 | 0.055
COc1ccc(CN2C(=O)c3cccnc3C2O)cc1 (stereo not drawn) | 0.01* | -27*
Cc1cccc(CCNC(=O)CNC(=O)c2cc3ccccc3o2)c1 | 0.97 | -0.59
Cc1csc2ncc(C(=O)Nc3ccc(Oc4ccccc4)cc3)c(=O)n12 | 1.3 | 7.8
O=C(CCc1nc(-c2ccccc2F)no1)N1CCN(c2ncccn2)CC1 | 0.87 | -2

Arranged by value in CBX7 inh z-score (largest number first): 3 of the compounds above.
| Compound | CBX7 inh z-score |
| --- | --- |
| CCOC(=O)c1cnc2c(C)cc(Cl)cc2c1NCc1ccccc1 | 2.7 |
| Cc1cccc(CCNC(=O)CNC(=O)c2cc3ccccc3o2)c1 | -0.59 |
| COc1ccccc1CNC(=O)CNS(=O)(=O)c1ccc2c(c1)CCN2C(C)=O | -1.5 |

Structures listed so far that have bromine (two):
SMILES | CBX7 inh | CBX7 inh z-score
Brc1ccc2nc(Nc3ccccn3)nc(-c3ccccc3)c2c1 | 1.1 | 1.4
COCC(C)NC(=O)c1cc(-c2ccc(Br)cc2)on1 (stereo not drawn) | 1.1 | 0.15

More results follow.
SMILES | CBX7 inh | CBX7 inh z-score
CCOc1ccccc1C1CC(=O)Nc2cc(OC)c(OC)cc21 (stereo not drawn) | 1.1 | 0.69
COCC(=O)Nc1ccc2nc3n(c(=O)c2c1)CCCCC3 | 1 | 1
CCC(=O)N1c2ccc(S(=O)(=O)N3CCN(c4cc(Cl)ccc4C)CC3)cc2CC1C (stereo not drawn) | 0.98 | -0.5
COc1ccc(NC(=O)CCc2c(C)nc3cc(-c4ccc(OC)cc4OC)nn3c2C)cc1 | 0.96 | -0.56
Cc1ccc(C)c(Nc2cc(C(=O)NCc3ccccn3)c3ccccc3n2)c1 | 0.87 | -2.1
O=C(NCCc1c[nH]c2ccccc12)c1ccc(Cl)cc1 | 0.92 | -3.5
Cc1ccc(-c2cc(C(=O)Nc3nnc(C)s3)c3ccccc3n2)cc1 | 1.1 | 2

Some of the compounds tested; count on the stated rates, not on these rows.
